# Screening results: PubChem, several laboratories
# AF4-AF9 inh: inhibitors of AF4 peptide binding to AF9, primary screen, biochemical, AlphaScreen, biotin-AF4 peptide, FLAG-AF9, single point. 0.47% of 350,000 active. AID 651704, 2012. inhibition, % at 10 µM;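 active = every replicate reaching a set inhibition limit, whatever the replicate mean, cut at about 25% in these data; inconclusive = mean inhibition reaches that limit but some replicates miss it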;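 note: 0% = plate neutral control median and 100% = total signal loss; the record names both 10 and 1 µM as test concentration; the first replicate is given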
# ALR H2O2 inh: inhibitors of human ALR sulfhydryl oxidase, primary screen, biochemical, H2O2 detection, HRP-luminol luminescence, single point. purified ALR, DTT oxidation. inhibition, % (test concentration not listed). 3.8% of 290,000 active. AID 485317, 2010;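 active = mean and each replicate at 75% or more; inconclusive = only one of the two met; inactive = neither met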;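 note: stock transfer was 7.5 nL into about 7.5 µL; 0% = neutral wells and 100% = wells with inactivated enzyme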
# Target sequence (P55789 whole entry, looked up): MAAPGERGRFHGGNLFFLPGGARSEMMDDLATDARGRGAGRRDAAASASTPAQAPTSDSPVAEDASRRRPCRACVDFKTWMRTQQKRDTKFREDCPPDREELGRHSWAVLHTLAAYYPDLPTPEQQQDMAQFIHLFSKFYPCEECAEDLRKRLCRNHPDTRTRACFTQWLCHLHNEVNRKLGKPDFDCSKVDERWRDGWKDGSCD
# Ecoli rRNA inh: reduced GFP signal of wild-type E. coli, primary screen, bacterial rRNA inhibitor project, GFP/RFP fluorescence, OD600, single point | AID 720706, 2013 | GFP signal change (wild-type ribosome), % (concentration not given with the values) | 1.6% of 350,000 active | E. coli WT GFP vs humanized-ribosome RFP mutants, 24 h; stronger effect = lower value; DMSO median 0, no signal -100;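 active = significant combined selectivity score with lowered wild-type GFP, culture density cut under 30%, mutant RFP and density less affected; inactive = any of these conditions unmet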; note: one replicate is shown; some compounds called inactive have numbers as strong as hits
# FGF22 binding: binders of human FGF22 protein, primary screen, FGF22 synaptogenesis inhibitor project, biophysical, thermal shift, single point; recombinant FGF22 thermal shift, SYPRO orange fluorescence; percent of sucrose octasulfate shift, DMSO zero; calls only at 9.99 µM; 1.5% of 340,000 active; AID 651658, 2012;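 active = melting point raised past a set limit in the mean and every replicate; inconclusive = no clear call; three in four hits are not shown here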
# Target sequence (Q9HCT0 whole entry, looked up): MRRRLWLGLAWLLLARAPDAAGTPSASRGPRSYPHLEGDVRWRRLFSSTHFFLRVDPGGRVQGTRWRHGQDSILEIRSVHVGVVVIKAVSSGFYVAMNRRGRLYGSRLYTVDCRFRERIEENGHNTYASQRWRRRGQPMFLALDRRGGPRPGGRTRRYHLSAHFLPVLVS
# Vif TR-FRET: inhibitors of Vif binding to APOBEC3G peptide, primary screen, biochemical, TR-FRET, GST-Vif 1-94, biotin-A3G peptide, dose response retest (AID 1117319); Virion infectivity factor (Human immunodeficiency virus type 1 group M subtype B (isolate …; TR-FRET GST-Vif / biotin-A3G peptide binding; higher % means a stronger effect; test concentration not given here; strong numbers were not always called active; inhibition, %; hits with a dose series show IC50 in µM; 0.57% of 260,000 active;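 active = above the screen mean plus three standard deviations and confirmed in dose response; inconclusive = results disagree or hit not tested in dose response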;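 note: Vif residues 1-94 fused to GST binding biotinylated APOBEC3G peptide 110-148; 0% = full assay without inhibitor and 100% = GST in place of GST-Vif; retest series ran down from 100 µM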
# HNF4A DNA FP: change in binding of human HNF4A to DNA, primary screen, biochemical, fluorescence polarization, FITC-DNA | Hepatocyte nuclear factor 4-alpha (Homo sapiens), P41235 | 1 h | activity change, % at 10 µM | 0.3% of 360,000 active | AID 1224865, 2016; in the data active = activity change above about 30%, passing the limit was not always enough;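 note: controls were the assay level and a saturating level of protein; the project sought stronger binding though the title names inhibitors; some compounds called inactive have numbers as strong as hits; positive values seem to mean higher polarization but the record does not say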
# Target sequence (P41235 whole entry, looked up): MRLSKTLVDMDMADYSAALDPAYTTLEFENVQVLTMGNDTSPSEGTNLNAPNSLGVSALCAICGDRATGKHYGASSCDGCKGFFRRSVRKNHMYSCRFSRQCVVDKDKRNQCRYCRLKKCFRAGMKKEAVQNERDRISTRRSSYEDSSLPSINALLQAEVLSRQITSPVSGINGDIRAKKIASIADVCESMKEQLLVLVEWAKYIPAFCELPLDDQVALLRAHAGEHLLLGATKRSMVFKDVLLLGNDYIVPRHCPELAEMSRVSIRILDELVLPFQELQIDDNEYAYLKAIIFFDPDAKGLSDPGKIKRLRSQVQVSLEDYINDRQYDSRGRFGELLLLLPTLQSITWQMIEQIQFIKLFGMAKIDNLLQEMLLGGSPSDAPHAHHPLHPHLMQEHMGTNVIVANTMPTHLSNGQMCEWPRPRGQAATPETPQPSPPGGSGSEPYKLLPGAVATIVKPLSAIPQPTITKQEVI
# Ecoli growth: E. coli growth inhibition, primary screen, OD600; AID 1053175, 2014; Escherichia coli growth, 23 h; stronger effect = lower value; OD600 absorbance (test concentration not listed); 0.21% of 330,000 active;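 active = OD600 absorbance below the run mean of sample wells minus 3.6 SD, in any replicate, cut at about 0.56 in these data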;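 note: stock transfer was 300 nL into about 60 µL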
# Ecoli rRNA inh OD600: further read-out of Ecoli rRNA inh, marked with its call; OD600 change, %; measured here: OD600 growth;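 optical density of the mix in the first replicate; 0 = DMSO median and -100 = no signal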
# Ecoli rRNA inh RFP: further read-out of Ecoli rRNA inh, marked with its call; RFP signal change, %; measured here: RFP humanized mutant strains;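 first replicate; 0 = DMSO median and -100 = no signal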
# An asterisk follows results filed as active; i = inactive; ? = inconclusive; / = no result given; & = joins results of further samples. A portion of the library; count on the stated rates, not on these rows.
SMILES,AF4-AF9 inh,ALR H2O2 inh,Ecoli rRNA inh,Ecoli rRNA inh OD600,Ecoli rRNA inh RFP,FGF22 binding,Vif TR-FRET,HNF4A DNA FP,Ecoli growth
O=[N+]([O-])c1cc(CSC2=NCCN2)ccc1O,-2.1,/,8,-1,-2.9,i,/,-1.4,0.67
C=CCN1C(=O)C(C(C)CC)NC1=S (stereo not drawn),/,-1,/,/,/,/,3%,3.0,0.67
O=C(NC1CCCCC1)C(c1ccc(F)cc1)N(Cc1ccco1)C(=O)CN1C(=O)c2ccccc2S1(=O)=O (stereo not drawn),-5.3,3,6,16,9.3,i,-1%,0.9,0.72
O=c1oc(=O)c2ccccc2c2ccccc12,0.3,/,7,16,1.0,i,-13%,1.1,0.71
CC(C)(C)c1ccc(CCC(CC(=O)O)CC(=O)O)cc1,-1.8,1,16,16,4.7,i,32%,1.7,0.71
COC(=O)C(C(=O)OC)[C@@H]1C=C[C@H](C[N+](=O)[O-])N(C(C)=O)C1,-0.7,/,10,20,-1.8,i,/,-2.3,/
CC1(C(=O)NS(=O)(=O)C2CC2)CCN(C(=O)c2c(F)cccc2F)C1 (stereo not drawn),-5.8,/,14,21,-1.2,i,/,-0.5,/
C[n+]1ccccc1/C=C1\Sc2ccccc2N1CCO,-4.8,70,12,1,-1.7,i,2%,3.4,0.66
CC(C)NC(=O)C1CCN(C2CCN(Cc3cn[nH]c3-c3ccccc3)CC2)CC1,0.0,-2,11,4,-0.3,i,?,-1.6,0.72
CCOC(=O)Cc1ccc(NS(=O)(=O)c2ccc(SC)cc2)cc1,/,-9,/,/,/,/,2%,0.6,0.71
O=C(NCC[C@@H]1CC[C@@H](NC(=O)C2CCCCC2)[C@@H](CO)O1)c1cc(Cl)cc(Cl)c1,0.2,/,3,3,0.3,i,/,/,/
CCOC(=O)N1CCN(C(=O)CCc2ccc(S(=O)(=O)NC(C)C)cc2)CC1,0.7,-7,4,2,-0.5,/,/,0.8,0.67
Cc1noc(C)c1COc1ccc(C(=O)NNC(=O)c2ccccc2F)cc1,/,-4,/,/,/,/,-6%,0.1,0.65
Cc1ccc(-c2nc(N/N=C/c3ccncc3)c3ccccc3n2)cc1,/,45,/,/,/,/,0%,-2.7,/
COCC(=O)Nc1ccc2c(c1)C(=O)N(C)[C@@H]1CC[C@H](CC(=O)NCCc3ccncc3)O[C@H]1CO2,-1.0,/,2,2,-2.7,i,/,/,/
CN=c1sc2ccccc2n1CC(O)COc1ccccc1 (stereo not drawn),7.8,-19,-17,-7,0.2,i,-3%,-0.8,0.63
CCc1ccccc1NC(=S)N(CCN1CCCCC1)Cc1ccco1,-3.0,-9,3,0,4.1,i,2%,0.7,0.71
CC=Cc1ccc2n(c1=O)C[C@@H]1[C@@H](CO)[C@H](C(=O)N3CCc4ccccc4C3)[C@H]2N1Cc1cocn1 (mixture of isomers),-2.0,/,-2,-11,-0.3,i,/,/,/
O=C(C1=C[C@H](c2ccccc2)C[C@H](OCc2ccc(CO)cc2)O1)N1CCOCC1,-2.6,-15,-1,6,3.8,i,8%,4.2,0.65*
C/C=C(\NC(C)=O)c1ccccc1,-0.1,-8,4,4,-0.4,i,/,-4.2,/

# Of the compounds above, 2 have a nitro group on carbon.
SMILES,AF4-AF9 inh,ALR H2O2 inh,Ecoli rRNA inh,Ecoli rRNA inh OD600,Ecoli rRNA inh RFP,FGF22 binding,Vif TR-FRET,HNF4A DNA FP,Ecoli growth
O=[N+]([O-])c1cc(CSC2=NCCN2)ccc1O,-2.1,/,8,-1,-2.9,i,/,-1.4,0.67
COC(=O)C(C(=O)OC)[C@@H]1C=C[C@H](C[N+](=O)[O-])N(C(C)=O)C1,-0.7,/,10,20,-1.8,i,/,-2.3,/

# Later entries
SMILES,AF4-AF9 inh,ALR H2O2 inh,Ecoli rRNA inh,Ecoli rRNA inh OD600,Ecoli rRNA inh RFP,FGF22 binding,Vif TR-FRET,HNF4A DNA FP,Ecoli growth
O=C(Nc1ccc(F)c(Cl)c1)C1Cc2c(-c3ccc4c(c3)OCO4)ccnc2O1 (stereo not drawn),-2.9,/,-5,-18,-7.0,i,/,1.1,/
COC(=O)[C@@]12C[C@@H](CC(=O)NCCC(C)C)C(=O)N(Cc3ccccc3)C1=CCC(C)(C)C2,-1.3,/,-4,-8,-2.6,i,/,4.5,/
O=C(COC(=O)CCS(=O)(=O)c1ccccc1)Nc1ccccc1,-0.5,14,14,7,-0.8,i,-6%,-1.4,/
COc1cc(C)ccc1OCc1cc(C(=O)N(Cc2nccn2C)C(C)C)no1,1.1,-6,0,1,-7.3,i,/,-5.6,0.68
CCn1nnnc1SCC(=O)N1c2ccccc2NC(=O)CC1C (stereo not drawn),-3.7,-4,24,17,0.4,i,2%,-1.0,0.67
CCOCCOCN(C#N)c1nc(OC)nc(N(C)C)n1,/,-8,/,/,/,/,-4%,-3.0,0.67
Cc1cc(OCC(=O)Nc2ccncc2)ccc1Cl,-4.7,-2,-4,-10,-1.4,i,/,2.7,0.63
COc1cc(C(=O)NNC(=O)COc2ccc(Cl)cc2)ccc1OCC(=O)N1CCOCC1,-2.5,-7,6,7,-1.3,i,-3%,-3.1,0.73
CC1CCCC(C)N1/N=C/c1ccc(C#N)cc1 (stereo not drawn),-1.3,4,8,7,9.7,i,-2%,5.4,/
O=C(NNC1=C(C(=O)C(F)(F)F)CCC1)c1ccc(Br)cc1,0.1,21,-16,-8,26,i,1%,-2.7,0.58
COc1ccc(-n2cnnc2SCC(=O)Nc2nc(C)c(Cl)cc2Cl)cc1,/,-6,/,/,/,/,18%,-2.5,0.68
O=C(CSc1nnc(CNC(=O)c2ccccc2F)o1)NC1CCCCC1,-0.7,3,2,-3,0.9,i,/,-1.2,0.62
C[C@@H]1CN([C@@H](C)CO)C(=O)CCCn2nncc2CO[C@H]1CN(C)Cc1cccc2c1OCCCO2,-2.7&-0.8&-0.8,/,7&-1,10&-2,-0.7&0.5,i,/,-1.9,/
Cc1ccc(-c2nc(C3CCN(S(C)(=O)=O)CC3)no2)cc1,/,-7,/,/,/,/,-6%,-1.0,0.67
CCS(=O)(=O)c1nc(S(=O)(=O)c2ccc(Cl)cc2)c(N2CCN(CCO)CC2)s1,2.6,1,2,2,2.2,i,/,-0.8,0.71
Cc1cc(C)c(C(CC(=O)c2cccs2)C(C#N)C#N)c(C)c1 (stereo not drawn),1.3,/,/,/,/,i,-1%,-3.4,0.7
CCOC(=O)c1sc2nc(C)nc(NCCc3ccc(S(N)(=O)=O)cc3)c2c1C,-0.8,-1,18,7,-0.5,i,/,1.2,0.74
CN(CC(=O)Nc1ccccc1Cl)CC(=O)N1CCc2ccccc21,-3.4,-33,-13,-10,-1.3,i,/,3.5,0.71
N#CCCCn1c(=O)oc2ccccc21,-2.0,-5,16,15,4.3,i,/,-2.4,0.65
O=C1CCc2cc(S(=O)(=O)Nc3ccccc3)cc3c2N1CCC3,-1.4,0,0,-11,0.5,i,-1%,-1.8,0.64
COc1ccc(SCc2noc(C(=O)NCC3CCCO3)c2C(=O)O)cc1 (stereo not drawn),-2.4,-5,-7,-6,-1.8,i,-4%,-3.3,0.67
O=C(Cn1c(=O)n(CC2CCCO2)c(=O)c2ccccc21)c1ccc(Cl)c(Cl)c1 (stereo not drawn),/,-12,/,/,/,/,-9%,3.7,0.68
COc1cc(NC(=O)C2CCCCC2)c2ncccc2c1,/,-13,/,/,/,/,1%,-0.4,0.69
CCOC(=O)Nc1cc(NC(=O)OCC)c(C)nc1C,-3.0,-3,9,5,-0.6,i,-9%,0.1,0.72
C[C@H](NS(=O)(=O)c1ccccc1F)C(=O)OCC(=O)N1CCc2ccccc21,/,-2,/,/,/,/,-5%,2.2,0.72
O=C(O)c1cc(-c2ccc(N3CCOCC3)cc2)nn1-c1ccccc1Cl,0.7,59,-13,-20,8.8,i,15%,1.6,0.72
C[C@@H]1CCCCO[C@@H](CN(C)Cc2ccc3c(c2)OCO3)[C@@H](C)CN([C@H](C)CO)C(=O)c2cc(NC(=O)Nc3ccc(F)cc3)ccc2O1,-8.1,/,6,4,2.7,i,/,/,/
Cc1ccccc1NC(=O)CSc1nnc(Cc2ccccc2)o1,/,-7,/,/,/,/,-3%,2.4,0.66
CCN(CC)C(=O)COc1ccc2c3c(c(=O)oc2c1)CCCC3,-30,-3,7,8,-1.5,/,/,0.2,0.71
CC(C)NC(=O)Nc1ccc2c(c1)C(=O)N([C@@H](C)CO)C[C@@H](C)[C@@H](CN(C)Cc1ccncc1)O2,-2.1,/,2,-4,-0.3,i,/,/,/
CCOC(=O)C1=C(C)NC(C)=C(C(=O)OCC)C1C(=O)OCC(=O)Nc1ccc(NC(C)=O)cc1,-3.2,/,1,15,11,i,-9%,4.0,/
O=C(N/N=C/c1cccnc1)c1cccc(F)c1,-3.6,-12,13,7,1.6,i,-4%,-2.1,/
Cc1ccc(N2C(=O)C(NC(=O)c3c(F)cccc3F)(C(F)(F)F)C3=C2CC(C)(C)CC3=O)cc1 (stereo not drawn),/,-1,/,/,/,/,2%,0.1,0.72
O=C(NC(C1CC1)C1CC1)C1CCC(=O)N(CCCN2CCCC2=O)C1 (stereo not drawn),-3.7,-5,0,10,-2.6,i,/,6.0,0.73
CCCC(=O)Nc1ccc2c(c1)C(=O)N(C)[C@@H]1CC[C@@H](CC(=O)NCCCN(C)C)O[C@@H]1CO2,0.6,/,6,9,0.6,i,/,/,/
COc1ccccc1NC(=O)CCNC(=O)c1ccc(C)cc1,3.0,2,9,7,-0.5,i,/,-0.1,0.68
CC(C(=O)N1CCc2ccccc21)N1CCN(c2ccccn2)CC1 (stereo not drawn),?,-12,6,14,2.8,i,/,4.5,0.66
C[C@@H]1CN([C@@H](C)CO)C(=O)c2cc(NS(=O)(=O)c3cccs3)ccc2O[C@H]1CN(C)C(=O)Nc1cccc2ccccc12,-0.5,/,-6,-5,6.3,i,/,/,/
Cc1ccc(S(=O)(=O)N2CCC(C(N)=O)CC2)cc1[N+](=O)[O-],-0.5,/,2,14,0.2,i,-3%,1.0,0.63
O=C(Nc1ccc(F)cc1)c1ccc2[nH]c(=O)c(=O)[nH]c2c1,-2.0,-6,4,3,-1.1,i,/,4.5,0.72
Cn1nnnc1Sc1ccc([N+](=O)[O-])cc1Cl,1.8,-18,7,-5,-0.7,i,/,-0.8,0.68
COc1ccc2c3c(n(C)c2c1)[C@H](CO)N(C(=O)c1ccccc1)CC31CN(C(=O)c2ccccc2)C1,-1.6,/,-5,-5,1.9,i,/,/,/
C=CCN(c1ccccc1)S(=O)(=O)c1cccc(C(=O)OCC(=O)NC2CC2)c1,0.2,1,-24,-31,-5.0,i,3%,5.4,0.7
NS(=O)(=O)c1ccc(NC(=O)COC(=O)c2cc([N+](=O)[O-])ccc2Cl)cc1,1.1,/,8,9,-1.1,i,/,4.1,0.73
